ClpP mod = qHTS Assay for Activators of ClpP. ATP-dependent Clp protease proteolytic subunit (Bacillus subtilis (strain 168)), P80244. purified B. subtilis ClpP, FRET peptide cleavage, 20 min. Potency, µM (series often up to 57.5 µM), without a hit: top-dose activity change, negative = active. hit rate 1.9% among 340,000; active = well fitted falling curve with a large enough effect; inconclusive = small, poorly fitted or top-dose-only effect; inactive = no such curve, though single readings can be large or run the other way; also: potency is read from the fitted curve at half-maximal effect; the source files actives as falling curves though it sought activators and does not explain the sign; nearly all actives have a fitted effect of over 65% in size; many hits overshoot -100%
Target sequence (P80244 whole entry, looked up): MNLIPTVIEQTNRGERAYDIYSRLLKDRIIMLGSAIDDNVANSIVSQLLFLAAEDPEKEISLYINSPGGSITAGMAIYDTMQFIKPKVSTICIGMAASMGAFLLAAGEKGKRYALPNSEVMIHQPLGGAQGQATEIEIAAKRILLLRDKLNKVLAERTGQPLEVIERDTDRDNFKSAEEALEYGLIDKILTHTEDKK
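Purified B. subtilis ClpP, 10 microg/mL final in Tris/HCl pH8 with KCl, BSA, glycerol and Tween-20, cleaved an Abz/nitrotyrosine-quenched decapeptide. Fluorescence (ex 320, em 430) was read at 0 and 20 min at room temperature. Delta was normalized to 5.8 microM ADEP and DMSO/no-enzyme controls.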
gsp ag = activates gsp, the McCune-Albright syndrome mutation | AID 624287 | hit rate 0.13% among 340,000 | Potency, µM (top dose mostly 76.9 µM), for inactives: at the top dose activation (cAMP increase), actives largely listed as activators | gsp mutant cells, cAMP HTRF, 30 min; control for the full effect not named in the record; active = well fitted activation curve with a large enough effect; inconclusive = small, poorly fitted or top-dose-only effect, or another doubt; inactive = no such curve, though single readings can be large or run the other way; cell line not stated here;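 also: phosphodiesterase inhibitor Ro 20-1724 added with compounds to block cAMP breakdown; potency is read from the fitted curve at half-maximal effect; nearly all actives have a fitted effect of over 60% in size; about a fifth of the inactives were tested at one dose only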
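Cells in DMEM/10% FBS with G418 were pretreated with compounds in DMSO plus […] (300 uM stock) for 30 min at 37C. cAMP was measured by HTRF (cAMP-d2 plus anti-cAMP antibody-K) after 30 min at room temperature.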
gsp antag = antagonists of gsp mutant (McCune-Albright syndrome). Potency, µM (series often up to 76.9 µM), inactives show top-dose activity change, negative = inhibition, actives largely listed as inhibitors. gsp-mutant cells, cAMP HTRF, 30 min; control for the full effect not named in the record. hit rate 0.4% among 340,000; active = falling curve of any shape with a large fitted effect; inconclusive = falling curve, mostly with a smaller effect; inactive = flat or rising curve; cell line not stated here;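 also: intracellular cAMP measured with PDE inhibitor Ro 20-1724 present during compound exposure; potency is read from the fitted curve at half-maximal effect; % is scaled to controls: 0 for no effect and ±100 for the full control effect; nearly all actives have a fitted effect of over 65% in size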
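HTRF cAMP read-out (cAMP-d2 plus anti-cAMP antibody-K in lysis buffer, 30 min RT). Before lysis, cells are exposed to compounds with […] for 30 min at 37C in DPBS containing Ca/Mg, BSA and Tween 20.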
Sfp PPTase inh = blocks B. subtilis Sfp PPTase activity; Q9F4F7; Potency, µM, for inactives: max response, negative = inhibition, actives largely listed as inhibitors; Biochemical Sfp PPTase activity, qHTS; AID 1490; hit rate 3.5% among 310,000; active = well fitted inhibition curve with a large enough effect; inconclusive = small, poorly fitted or top-dose-only effect, or another doubt; inactive = no such curve, though single readings can be large or run the other way;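 also: the enzyme is Sfp with the accession as filed and its product quenches rhodamine fluorescence; potency is read from the fitted curve at half-maximal effect; 0% = enzyme reaction without inhibitor and -100% = no enzyme wells; top concentration of the series not given in the record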
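Reaction rates are the 30-min fluorescence difference (ex 525, em 598 nm) in wells containing 15 nM Sfp, 5 uM rhodamine-CoA and 12.5 uM BHQ-2-YbbR at pH 7.6 with 10 mM MgCl2.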
TRPV1 potentiator = potentiators of human vanilloid receptor 1 (TRPV1); potentiation, % at 8.33 µM; TRPV1-expressing cells, Fluo-8 calcium influx, capsaicin EC20 potentiation; host cell line not named in the record; control for the full effect not named in the record; Q8NER1; hit rate 0.02% among 320,000; active means potentiation above 80%; inconclusive means 30% to 80%; inactive means below 30%; also: 0% is about no effect
Target sequence (Q8NER1 whole entry, looked up): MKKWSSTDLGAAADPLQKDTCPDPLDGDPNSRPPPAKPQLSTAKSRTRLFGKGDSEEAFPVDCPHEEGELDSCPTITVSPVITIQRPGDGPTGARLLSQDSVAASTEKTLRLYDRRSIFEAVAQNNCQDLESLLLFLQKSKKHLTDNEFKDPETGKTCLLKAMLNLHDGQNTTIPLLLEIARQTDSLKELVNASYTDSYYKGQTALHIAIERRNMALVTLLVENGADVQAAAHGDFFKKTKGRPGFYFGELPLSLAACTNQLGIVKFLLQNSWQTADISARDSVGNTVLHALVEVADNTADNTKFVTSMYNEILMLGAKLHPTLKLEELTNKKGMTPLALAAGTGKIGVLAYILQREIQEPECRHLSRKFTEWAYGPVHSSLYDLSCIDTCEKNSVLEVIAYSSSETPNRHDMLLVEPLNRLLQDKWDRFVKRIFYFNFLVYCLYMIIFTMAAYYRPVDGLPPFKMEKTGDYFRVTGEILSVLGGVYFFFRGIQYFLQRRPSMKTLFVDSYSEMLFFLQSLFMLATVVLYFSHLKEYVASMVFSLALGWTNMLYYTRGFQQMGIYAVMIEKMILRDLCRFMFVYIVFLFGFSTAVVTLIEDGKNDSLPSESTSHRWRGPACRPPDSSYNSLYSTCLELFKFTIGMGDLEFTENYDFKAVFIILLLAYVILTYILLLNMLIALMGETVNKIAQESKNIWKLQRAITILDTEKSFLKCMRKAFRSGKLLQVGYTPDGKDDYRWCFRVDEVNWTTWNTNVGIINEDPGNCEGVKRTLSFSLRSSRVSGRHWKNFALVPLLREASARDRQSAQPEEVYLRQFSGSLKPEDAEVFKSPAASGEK
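Cells expressing TRPV1 were dye-loaded with Fluo-8 and read kinetically: 10 s baseline, 3 min after compound (agonist portion), then 2 min after EC20 capsaicin (allosteric enhancer portion). Calcium-bound dye fluorescence at 480/520 nm.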
CtBP-E1A inh = inhibitors of CtBP/E1A interaction. AlphaScreen GST-E1A/His-CtBP binding, 1536-well; stronger effect = lower value; control for the full effect not named in the record. activity change, % (no concentration beside the values). hit rate 0.49% among 340,000; in the data active means activity change below about -65%; inconclusive means about -30% to -65%; inactive means above about -30%; also: % is scaled to controls: 0 for no effect and ±100 for the full control effect; compound concentration not given in the record
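Homogeneous bead-based format: GST-tagged E1A captured on glutathione donor beads, His-tagged CtBP on nickel acceptor beads; compounds precede bead addition by 2 h at 37 °C.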
Menin MLL FP FL = displaces fluorescein MLL peptide from human menin | Fluorescence polarization, fluorescein-MLL peptide displacement from menin | FP activity change, % at 61.4 µM | 290,000 tested, under 10 active | AID 1766; inconclusive = falling polarisation curve, or a change in total fluorescence; inactive = total fluorescence flat and polarisation flat or rising; no compound was filed as active; the % refers to the polarisation; negative = inhibition;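 also: % of control where 0% means no effect; inhibitors lower the polarisation; unlabelled MLL peptide was the positive control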
An asterisk follows results filed as active; u = inconclusive; x = no result given; & = joins results of further samples; [ ] = dose if it differs, or a comment.

SMILES	ClpP mod	gsp ag	gsp antag	Sfp PPTase inh	TRPV1 potentiator	CtBP-E1A inh	Menin MLL FP FL
CCOC(=O)C1=C(C)NC(=O)NC1c1ccc(C)o1 (stereo not drawn)	-5.5%	-1%	8%	-5%	4	0	-3.5
O=C1[C@H]2[C@@H](c3ccc(C(F)(F)F)cc3)N[C@]3(CCCN(Cc4ccccc4)C3=O)[C@H]2C(=O)N1Cc1ccccc1	-1.7%	7%	x	x	x	-23	x
COCCCNCCCCOc1ccccc1-c1ccccc1	-0.9%	0%	19%	-22%	-3	-1	0.4
CC(=O)C1=C(C)OC(N)=C(C#N)C1c1cc2cccc(C)c2nc1Cl (stereo not drawn)	u	-1%	-11%	-17%	1	-4	-0.7
Cc1ccc(OCC(=O)Nc2ccccc2C(N)=O)cc1	x	-66%[inhibitor]	-3%	20%	-1	-9	-5.4
O=C(NNC(=O)c1ccccc1F)c1cccc(-n2cccc2)c1	-1.0%	-18%	8%	x	22	7	x
C[C@H](CO)N1C[C@H](C)[C@@H](CN(C)S(=O)(=O)c2ccccc2)Oc2c(NC(=O)c3ccncc3)cccc2C1=O	0.3%	-18%	6%	x	x	0	x
Cc1ccc(C)c(S(=O)(=O)N2CCN(C(=O)Cc3sc(C)nc3-c3ccc(F)cc3)CC2)c1	1.5%	-78%[inhibitor]	-40%	x	x	0	x
C=CS(=O)(=O)N(Cc1ccc(Cl)c(Cl)c1)C[C@@H](O)CO	0.4%	x	10%	x	x	7	x
O=[N+]([O-])c1ccc(NC(=S)NCCc2ccc(Cl)cc2)cc1	-1.8%	1%	-12%	u	3	5	3.0
CCCN(CCC)CCCNC(=O)c1cn(CC)c2ccc(S(=O)(=O)N3CCOCC3)cc2c1=O	-6.2%	26%	12%	25%	-9	-2	-0.1
COc1ccc(C(=O)Nc2cc(=O)n(C)c(=O)n2C)cc1OC	-1.3%	11%	-2%	-7%	-4	2	3.6
N#Cc1c(N)n(CCOC(=O)c2cccc(Br)c2)c2nc3ccccc3nc12	u	-36%	-16%	-5%	2	-8	2.7
Cc1cccc(OCC(=O)NCC(=O)N/N=C/c2ccc(O)cc2O)c1	-11%	0%	-3%	16%	12	x	-1.9
CC1CC1c1ccc(/C=C(\C#N)C(=O)Nc2cc(Cl)ccc2Cl)o1 (stereo not drawn)	1.5%	-10%	4%	-5%	-7	-8	-1.9
CC1(C)OC(c2ccccc2)=C/C(=C\C=N\NC(=O)c2ccncc2)O1	x	-2%[15.4 µM]	-26%	3%	-32	-9	5.3
Cc1noc(C)c1C(=O)OCC(=O)Nc1cccc(F)c1	0.9%	-4%	x	x	x	2	x
CN1C(=O)/C(=C\c2cc(Br)cs2)c2ccccc21	x	-63%[inhibitor]	-10%	-6%	-3	-9	2.3
O=C1N/C(=C/c2cccn2-c2ccccc2)C(=O)N1Cc1ccc(F)cc1	0.8%	0%[15.4 µM]	-11%	45µM*	-1	13	7.3
O=C(O)C1C2CCC(O2)C1C(=O)Nc1cnn(Cc2ccccc2)c1 (stereo not drawn)	0.5%	u	13%	1%	3	7	0.2
Cc1cccc(-n2cc(CN3CCN(c4ccccn4)CC3)c(-c3cccc(F)c3)n2)c1	u	38%	9%	2%	-9	1	0.5
CC(C)c1ccc(NC(=O)NC2(C(=O)NCc3cccnc3)CCCCC2)cc1	-2.4%	9%[15.4 µM]	4%	15%	-6	5	-4.9
Cc1nc2ccn(Cc3ccccc3)c(=O)c2cc1C(=O)N1CCN(c2ccccc2)CC1	-12%	u	-7%	2%	-1	-10	-16
O=C(Cn1nnc(-c2ccccc2NC(=O)c2ccco2)n1)Nc1ccccc1	u	-2%	13%	10%	u	0	2.5
O=C(c1[nH]nc2c1CCc1ccccc1-2)N1CCN(Cc2ccc3c(c2)OCO3)CC1	1.8%	-11%	-24%	5%	-6	-16	2.2
COc1cccc(NC(=O)CCNC(=O)N2CC(=O)Nc3ccccc32)c1	-1.1%	u	6%	-4%	1	0	x
O=C(c1ccc2c3n(nc2c1)-c1ccc(Cl)cc1CO3)N1CCCCC1	-6.0%	x	0%	56µM*	-49	-1	2.9
CCOc1ccc(C(=O)O)cn1	-0.4%	-58%[inhibitor]	10%	-3%	u	1	-3.5
COc1ccc(NC(=O)c2ccc(C)o2)c([N+](=O)[O-])c1	52%	u	6%	9%	2	1	-8.0
CCC(=O)Nc1ccc(C(=O)Nc2ccc(OC)cc2[N+](=O)[O-])cc1	2.3%	3%	14%	14%	-7	5	8.5
Cc1ccc(NC(=O)c2ccccc2-c2ccc(C(F)(F)F)cc2)cc1S(=O)(=O)N1CCOCC1	0.1%	-6%[15.4 µM]	-2%	0%	-24	4	12
CC(C)Oc1ccc(CNCC2(O)CCOC(C)(C)C2)cc1 (stereo not drawn)	-5.6%	u	5%	-9%	-9	-1	-1.1
CC(=O)Nc1ccc(CNc2ncnc3ccc(-c4c(C)noc4C)cc23)cc1	x	x	x	13%	-9	x	0.6
COC(=O)c1ccc(C2=NOC(C)(c3nnc(Cc4ccccc4)o3)C2)cc1 (stereo not drawn)	-1.1%	x	-5%	x	22	1	x
COc1ccc(C(=O)N2CCC(C(=O)Nc3ccc(C)cc3)CC2)cc1	0.3%	-21%	1%	5%	-6	x	3.0
O=C(N/C=C/n1cnc2cc(C(F)(F)F)ccc21)c1ccc(F)cc1	3.0%	24%	x	x	x	-2	x
Cc1cc(NC(=O)c2nn(C)c(C)c2[N+](=O)[O-])no1	1.3%	27%	8%	4%	-14	1	0.2
COc1cccc(C(C(=O)NC(C)(C)C)N(Cc2ccco2)C(=O)CCC(=O)Nc2cc(C)on2)c1OC (stereo not drawn)	x	-10%	-1%	10%	3	-2	5.6
CS(=O)(=O)N(CC(=O)Nc1ccccc1-c1ccccc1)c1ccc(F)cc1	x	10%[15.4 µM]	x	4%	-9	12	-0.5
O=C1c2ccccc2CN1CCSC(=S)N1CCSCC1	x	x	x	4%	9	x	-0.1
CCOC(=O)c1c(S(=O)(=O)NCC(=O)Nc2cc(C)ccc2C)c(C)n(C)c1C	-0.9%&-0.1%	u	6%	4%	13	-12	0.0
COc1cc(CCC(=O)NCc2ccc3c(c2)OCO3)cc(OC)c1OC	x	-50%[inhibitor]	2%	16%	3	7	-8.0
O=[N+]([O-])c1cc2c(c(CSc3nnc4ccccn34)c1)OCOC2	0.6%	99%[15.4 µM]	24%	-20%	24	0	0.5
COCCN(CCOC)c1ncnc2c1cnn2-c1ccc(Cl)cc1	-3.4%	-7%	9%	7%	8	15	7.0
Cc1ccc(S(=O)(=O)NC(CCC(N)=O)C(=O)NCc2ccc3c(c2)OCO3)c(C)c1 (stereo not drawn)	x	15%[15.4 µM]	-2%	x	6	5	x
COC(=O)[C@@H](NC(=O)NCc1ccco1)C(C)C	0.9%	-1%	-4%	19%	-3	1	1.0
CCC1CCCCN1C(=S)NC1CCCCC1 (stereo not drawn)	-9.4%	u	10%	12%	10	3	4.6
COc1ccc(CCNC(=O)C(C(=O)c2ccccc2)n2ccccc2=O)cc1OC (stereo not drawn)	0.9%	-2%	8%	-11%	13	2	14
Cc1nn(CC(=O)Nc2cc(S(=O)(=O)N3CCOCC3)ccc2Cl)c(C)c1[N+](=O)[O-]	0.8%	16%	-5%	x	3	x	x
Cn1nnnc1SCCNCc1ccccc1OCc1ccc(F)cc1	-1.4%	13%	8%	5%	0	8	-0.9
O=C(/C=C/c1cccs1)Nc1scc(-c2ccccc2)c1C(=O)O	x	19%[15.4 µM]	u	32µM*	-1	3	-3.0
CCOc1ccccc1NC(=O)c1ccccc1-c1ccccc1	x	10%	-18%	-14%	2	16	2.7
CCCCOc1ccc(C(=O)NNC(=O)C2C3CCC(C3)C2C(=O)O)cc1 (stereo not drawn)	0.7%	28%	5%	u	-9	-4	x
CN1CCN(S(=O)(=O)c2ccc(NC(=O)Nc3cccc(Cl)c3)cc2)CC1	-4.8%	1%	-9%	-26%	-12	-13	2.3
Cc1cccc(SC2CCN(Cc3nc(CC4CC4)no3)CC2)c1	1.2%	10%[15.4 µM]	-4%	9%	-6	1	-1.0
Cc1ccc(-c2ccc(C(=O)O)[nH]2)cc1	u	-22%	-3%	-2%	0	1	6.7
O=C(NCCc1csc(-c2cccnc2)n1)c1ccc(Br)o1	-12%	13%	0%	20µM*	25	u	2.4
O=C(OCC(=O)N1CCCC1)c1c[nH]c2ccccc12	-1.9%	u	9%	x	3	x	x
CC(=O)Nc1c2c(nn1-c1ccc(C)cc1C)CS(=O)C2 (stereo not drawn)	-12%	9%	7%	9%	-7	x	x
O=C(CCCSc1nc2ccccc2[nH]1)NCc1ccccc1Cl	-0.5%	-28%	-2%	12%	0	2	9.3
(list continues)
SMILES	ClpP mod	gsp ag	gsp antag	Sfp PPTase inh	TRPV1 potentiator	CtBP-E1A inh	Menin MLL FP FL
COc1cc(/C=C/C(=O)OCC(=O)NCCN2C(=O)CSC2=O)ccc1OC(F)F	x	-12%	-9%	1%	-4	-14	-0.9
CC(=O)c1cccc(CN2CCC(CO)(CCOc3ccccc3)CC2)c1	1.2%	0%	1%	22%	11	-3	1.4
CC(=O)C1=C(C)NC(C)=C(C(C)=O)C1c1cccs1	-0.9%	1%	-4%	11%	-5	6	-0.2
Cc1ccsc1/C=N/Nc1ncc(Cl)cc1Cl	-7.3%	0%	5%	11%	-7	0	0.5
COc1cc(/C=C/C(=O)OCC(=O)NC(=O)NC2CCCCC2C)ccc1OC(F)F (stereo not drawn)	2.2%	-39%[inhibitor]	-4%	x	0	0	x
O=[N+]([O-])c1ccc(N2CCN(C(=S)Nc3ccc(F)cc3)CC2)cc1	x	-4%[15.4 µM]	-7%	5%	-23	-26	0.7
COc1ccc(CC(=O)Nc2ccc(S(=O)(=O)N3CCOCC3)cc2)cc1	-0.7%	4%	-3%	x	-8	-3	x

Quoted at random: two records from the list.
SMILES	ClpP mod	gsp ag	gsp antag	Sfp PPTase inh	TRPV1 potentiator	CtBP-E1A inh	Menin MLL FP FL
COc1cc(/C=C/C(=O)OCC(=O)NCCN2C(=O)CSC2=O)ccc1OC(F)F	x	-12%	-9%	1%	-4	-14	-0.9
CC(=O)c1cccc(CN2CCC(CO)(CCOc3ccccc3)CC2)c1	1.2%	0%	1%	22%	11	-3	1.4

From PubChem
